# Source: PubChem (Broad Institute)
# MITF inh – inhibitors of MITF. 37,000 compounds, 0.28% hits. AID 2240. inhibition, % (no concentration beside the values). TRPM1 promoter luciferase, luminescence, 24 h;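 active = most replicates at 85% or more, or half of them and the mean; inconclusive = half reach 85% but not the mean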;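 note: human melanocyte line stably carrying TRPM1 promoter luciferase reporter; 0% = vehicle wells and 100% = a positive control; the first replicate is given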
# * hit, by the source's call; ? = inconclusive. Not all compounds are listed, so the mix of outcomes need not match the whole.
SMILES | MITF inh
Cc1cc(Cl)c(S(=O)(=O)N2CCN(c3ccc(F)cc3)CC2)cc1OCC(N)=O | 33
COc1ccc([N+](=O)[O-])cc1NC(=O)CCN1CCN(CCO)CC1 | -4
COc1ccc(NC(=O)CSc2nc(N)cc(=O)[nH]2)cc1 | 0
Cc1ccc(OCCCn2cnc3ccccc3c2=O)c([N+](=O)[O-])c1 | -21
COc1ccc(OC)c(CNCc2ccccc2OC)c1 | 5
Cc1ccc(S(=O)(=O)N2Cc3ccccc3CC2C(=O)Nc2sc3c(c2C#N)CCCC3)cc1 (stereo unspecified) | 1
COc1ccc(OC)c(C2N=C(Nc3nc4ccccc4s3)NC3=C2C(=O)CC(C)(C)C3)c1 (stereo unspecified) | 48
Cc1ccc(N(C(C)C(=O)NC2CC2)S(C)(=O)=O)cc1 (stereo unspecified) | -5
COc1ccc(S(=O)(=O)N(C)c2ccc(C(=O)Nc3cccnc3)cc2)cc1 | -30
COc1ccc(C(NC(=O)c2cccnc2)c2cc(Cl)c3cccnc3c2O)cc1OC (stereo unspecified) | 53
O=C(CN1CCCCC1)Nc1nonc1NC(=O)CN1CCCCC1 | 3
CC(C)(C)c1cc(NC(=O)CSc2n[nH]c(N)n2)cc(C(C)(C)C)c1 | 11
Cc1ccc(-n2c(Cn3ncc4ccccc4c3=O)n[nH]c2=S)cc1 | -11
COC(=O)c1ccc(NC(=O)CSc2nc(-c3cccs3)cc(=O)[nH]2)cc1 | 7
COC(=O)c1cccc(COC(=O)c2ccccc2NC(=O)c2ccco2)c1 | -34
COc1ccc(N(CC(=O)Nc2cccnc2)S(C)(=O)=O)c(OC)c1 | 8
COC(=O)c1ccccc1NC(=O)COc1ccc2c(C)cc(=O)oc2c1 | -23
Cc1ccc2oc(C(=O)Nc3sc4c(c3C(=O)NCc3ccco3)CCC4)c(C)c2c1 | -43
Cc1c(C(=O)Nc2sc3c(c2C(=O)NC2CCS(=O)(=O)C2)CCC(C)C3)oc2ccc(Cl)cc12 (stereo unspecified) | -14
Cc1cc(Cl)ccc1NC(=O)CSc1nnc(-c2cccs2)n1-c1ccccc1 | 13
O=C(Nc1ccc(I)cc1C(=O)NCc1cccnc1)c1ccco1 | 6
O=C(CSc1nc(-c2ccc(Cl)cc2)cc(C(F)(F)F)n1)Nc1ccc(F)cc1 | 1
O=C1c2ccccc2S(=O)(=O)N1CC(O)Cn1c2ccc(Cl)cc2c2cc(Cl)ccc21 (stereo unspecified) | -19
O=C(CC1(O)C(=O)Nc2ccccc21)c1ccc(OCC(=O)N2CCOCC2)cc1 (stereo unspecified) | -6
OCCN(CCO)c1nc2ccccc2[nH]1 | 8
CC(C)CC(C(=O)Oc1ccc([N+](=O)[O-])cc1)N1C(=O)c2ccccc2C1=O (stereo unspecified) | -11
Cc1ccc2c(c1)C(O)(CC(=O)c1ccccc1[N+](=O)[O-])C(=O)N2 (stereo unspecified) | 14
Cc1c(C(=O)Nc2sc3c(c2C(=O)NCCc2ccccc2)CCC3)oc2ccc(F)cc12 | -14
COc1ccc(S(=O)(=O)NCCN2CCOCC2)c(C)c1C | 6
Cc1cc(C)cc(N(CC(=O)O)S(=O)(=O)c2ccccc2)c1 | -11
Cc1ccc(-c2cc(C(=O)NCc3cccnc3)c3cc(Br)ccc3n2)cc1 | -56
CCn1c(SCC(=O)Nc2cc(C(F)(F)F)cc(C(F)(F)F)c2)nnc1-c1ccncc1 | -40
Cc1nc(SCCC(=O)Nc2ccccc2C#N)nc2cc3c(cc12)CCC3 | -51
Cc1sc2nc(SCC(=O)c3ccc4c(c3)OCCO4)n(-c3ccccc3)c(=O)c2c1C | -16
Cc1noc(C)c1C(=O)NCc1ccccn1 | -8
O=C(COc1ccc(F)cc1)N(c1ccccn1)C1CCCCC1 | 3
COC(=O)c1ccccc1NC(=O)CNC(=O)c1ccco1 | -10
COc1ccccc1N1CCN(CCC(=O)Nc2ccc(Br)c(C)c2)CC1 | 26
COc1ccc([N+](=O)[O-])cc1NC(=O)CN(c1cc(C(F)(F)F)ccc1Cl)S(C)(=O)=O | -6
CSc1nsc(SCC(=O)N2CCc3ccccc32)n1 | -13
COc1ccc(NC(=O)CNC(=O)c2ccco2)cc1 | -58
CCOC(=O)c1c(NC(=O)c2ccc(N(C)S(C)(=O)=O)cc2)sc2c1CCCC2 | -2
O=C(COc1ccccc1[N+](=O)[O-])Nc1ccc(O)c(-c2nc3ccccc3s2)c1 | 7
COC(=O)c1ccccc1NC(=O)CSc1nc2ccccc2c(=O)[nH]1 | -2
COc1cc(C)c(Cl)cc1S(=O)(=O)NCCCN1CCOCC1 | -9
Cc1ccc(-n2c(Cn3c(-c4ccccn4)nc4ccccc43)n[nH]c2=S)c(Br)c1 | 11
COc1cccc2cc(C(=O)N3CCN(CCN4C(=O)c5cccc6cccc(c56)C4=O)CC3)c(=O)oc12 | -9
Cc1ccnc(NC(c2cccc([N+](=O)[O-])c2)c2ccc3ccc(C)nc3c2O)c1 (stereo unspecified) | 68
O=C(COc1ccccc1Cl)Nc1ccc([N+](=O)[O-])cc1O | 4
OCCNc1ncnc2c1oc1ccccc12 | -4
COc1cc(S(=O)(=O)n2cnc3cc(C)c(C)cc32)c(OC)cc1Cl | -13
CC(Sc1nc(-c2ccccc2)cc(-c2ccccc2)n1)C(=O)Nc1ccccc1 (stereo unspecified) | 22
Cc1nn(CC(=O)Nc2cccc(C(F)(F)F)c2)c(C)c1[N+](=O)[O-] | -10
CC(=O)c1cccc(NC(=O)CCCn2cc([N+](=O)[O-])cn2)c1 | 9
Cc1nn(C(=O)Cn2nc([N+](=O)[O-])cc2C)c(C)c1Cl | -16
Cc1ccc([N+](=O)[O-])cc1N(CC(=O)Nc1cccc(F)c1)S(C)(=O)=O | 0
CC(C)Oc1cccc(-c2cc(C(=O)NCc3ccco3)c3ccccc3n2)c1 | -6
Cn1c(=O)c2c(nc(NCC(O)CO)n2Cc2ccc(Cl)cc2)n(C)c1=O (stereo unspecified) | 0
Cc1n[nH]c(C)c1SCC(=O)Nc1cccc(Br)c1 | 2
CCc1nnc(NS(=O)(=O)c2ccc(NC(=O)c3ccc(F)cc3)cc2)s1 | 6

# Next part
SMILES | MITF inh
Cc1cc(OCC(=O)Nc2ccc(O)cc2C(=O)O)cc(C)c1Cl | -7
COc1cc(NC(=O)CCN2CCN(C)CC2)cc(OC)c1 | -18
COc1ccc(NC(=O)CSc2nnnn2-c2ccc(OC)cc2)cc1 | 9
O=c1c2c(nc3nc(NCc4cccc([N+](=O)[O-])c4)[nH]n13)CCC2 | -2
CCCC(NS(=O)(=O)c1ccc(C)cc1)C(=O)O (stereo unspecified) | -12
O=C(CSc1nc2sc3c(c2c(=O)n1C1CCCCC1)CCCC3)Nc1ccccc1 | -10
COc1ccc(S(=O)(=O)N(CC(=O)O)C2CCCCC2)cc1Cl | -8
N#Cc1c(NC(=O)CSc2nnc3c(n2)[nH]c2ccccc23)sc2c1CCCC2 | 42
COc1ccc(-c2noc(CN(C(C)C)S(=O)(=O)c3ccccc3)n2)cc1 | 26
CCOc1ccccc1Nc1nc(N)nc(CN2CCCCC2C)n1 (stereo unspecified) | 15
Cc1nn(S(=O)(=O)c2ccccc2[N+](=O)[O-])c(C)c1Sc1ccccc1 | 40
Cc1ccc(S(=O)(=O)NC(C(=O)Oc2cc3oc(=O)cc(-c4ccccc4)c3cc2Cl)C(C)C)cc1 (stereo unspecified) | -42
Cc1ccccc1NC(=O)CSc1nnc(-c2cccc(Cl)c2)n1C | -3
Cc1cc(C)c(OCC(=O)Nc2c[nH]c(=O)[nH]c2=O)cc1C | -7
CC(C)C(=O)Nc1ccccc1C(=O)OCc1cccc([N+](=O)[O-])c1 | -28
COc1ccc(N(CC(=O)Nc2cc(Cl)ccc2OC)S(C)(=O)=O)cc1 | 12
COc1ccccc1-c1nc(SCC(=O)N2CCOCC2)n[nH]1 | 31
CC(NS(=O)(=O)c1ccc(F)cc1)C(=O)Nc1ccc2c(c1)OCCO2 (stereo unspecified) | -20
CC(CCC(=O)Nc1ccccc1Cl)C(=O)O (stereo unspecified) | -34
Cc1cccc(C)c1NC(=O)CSc1nnnn1-c1ccc(I)cc1 | -6
Cc1nc(SCC(=O)Nc2cccc(C(=O)O)c2)[nH]c(=O)c1C | -2
O=C(O)COc1cccc(NC(=O)c2ccc(I)cc2)c1 | 19
O=S(=O)(Nc1nccs1)c1ccc(NS(=O)(=O)c2cc(Cl)ccc2Cl)cc1 | -7
CC1CCc2c(sc(NC(=O)c3cc(-c4cccnc4)nc4ccc(Cl)cc34)c2C(N)=O)C1 (stereo unspecified) | 5
CC(=O)c1ccc(NC(=O)Cn2cnc3ccccc3c2=O)cc1 | -30
Cc1cc(N(CC(=O)Nc2cc(Cl)ccc2Cl)S(C)(=O)=O)ccc1Br | 18
CC(=O)c1ccc(NC(=O)CSc2nnc3n(-c4ccccc4)c(=O)c4c5c(sc4n23)COC(C)(C)C5)cc1 | -79
COc1cc(NC(=O)COc2cccc(C)c2)c(OC)cc1Cl | -24
OCCCNc1ncnc2scc(-c3ccc(Br)cc3)c12 | 9
Cc1cccc(C)c1OCC(=O)Nc1ccccc1C(=O)NC1CCCCC1 | -10
COc1ccc(NC(=O)Cn2nnc(-c3ccccc3Cl)n2)cc1Cl | -11
Cc1cc(NC(=O)CSc2nc3ccccc3[nH]2)ccc1Cl | -13
COc1ccc(-c2ccc(C#N)c(SCC(=O)Nc3cc(OC)c(OC)c(OC)c3)n2)cc1 | -3
CC(Oc1ccc(Br)cc1)C(=O)Nc1ncn[nH]1 (stereo unspecified) | -19
O=C1c2ccccc2S(=O)(=O)N1CC(O)Cn1ccc2ccccc21 (stereo unspecified) | -22
Cc1ccc(-c2nnc(N3CCN(C(=O)CSc4nc(C)cc(C)n4)CC3)c3ccccc23)cc1 | 45
Cc1sc2ncn(CC(=O)Nc3cccc(Cl)c3C)c(=O)c2c1-c1ccccc1 | 21
Cc1nnc(SCC(=O)Nc2nsc(-c3ccc(Cl)cc3)n2)s1 | -51
O=C(CSc1nc2ccccc2c(=O)n1-c1ccccc1)NCC1CCCO1 (stereo unspecified) | 4
Cc1nc(SCC(=O)Nc2cc(C(F)(F)F)ccc2Cl)nc2c1CCCC2 | 21
CCC(=O)Nc1ccc(Cl)c(NC(=O)COc2cccc3ccccc23)c1 | -1
COc1cc(S(=O)(=O)NCCCN2CCOCC2)ccc1Cl | 3
O=C(CSc1nc2sccc2c(=O)[nH]1)Nc1ccccc1 | -2
Cc1c(Br)ccc(NC(=O)Cn2cnc3sc4c(c3c2=O)CCCC4)c1C | -28
Brc1ccc2[nH]c3nc(SCCN4CCOCC4)nnc3c2c1 | 2

# Looked up above:
# Value for Cc1cc(NC(=O)CSc2nc3ccccc3[nH]2)ccc1Cl under MITF inh: -13
# Value for Cc1ccc(-c2nnc(N3CCN(C(=O)CSc4nc(C)cc(C)n4)CC3)c3ccccc23)cc1 under MITF inh: 45

# 6 entries picked at random from the list so far, as already listed:
SMILES | MITF inh
Cc1nc(SCC(=O)Nc2cc(C(F)(F)F)ccc2Cl)nc2c1CCCC2 | 21
Cc1sc2ncn(CC(=O)Nc3cccc(Cl)c3C)c(=O)c2c1-c1ccccc1 | 21
Cc1cc(NC(=O)CSc2nc3ccccc3[nH]2)ccc1Cl | -13
Cc1nnc(SCC(=O)Nc2nsc(-c3ccc(Cl)cc3)n2)s1 | -51
O=C(CSc1nc2sccc2c(=O)[nH]1)Nc1ccccc1 | -2
O=C(CSc1nc2ccccc2c(=O)n1-c1ccccc1)NCC1CCCO1 (stereo unspecified) | 4

# Remaining list, next part
SMILES | MITF inh
CC1(C)CC(=O)C2=C(C1)NC(=O)CC2c1ccc(N(CCC#N)CCC#N)cc1 (stereo unspecified) | -23
CC(C)(C)c1cc(C(F)(F)F)c(C#N)c(SCC(=O)Nc2sc3c(c2C#N)CCCC3)n1 | 22
O=C1c2cccc3cccc(c23)C(=O)N1CCCSc1ncn[nH]1 | -3
COC(=O)C(NC(=O)c1ccc([N+](=O)[O-])o1)C(C)C (stereo unspecified) | -9
COc1ccccc1NC(=O)Cn1cnc2ccccc2c1=O | -5
Cc1c(F)cccc1NC(=O)C1CC=CCC1C(=O)O (stereo unspecified) | 6
Cc1nc2ccccc2n1CC(O)COc1ccc(C2C=CCC2)cc1 (stereo unspecified) | ?
CN(CC(=O)Nc1ccncc1)S(=O)(=O)c1ccc(Br)cc1 | 9
CC(=O)c1cccc(NC(=O)C(Cc2ccccc2)N2C(=O)c3ccccc3C2=O)c1 (stereo unspecified) | 5
Cc1c(C(=O)Nc2nnc(SCc3ccccc3F)s2)oc2ccccc12 | -6
Cc1sc2ncn(CC(=O)Nc3ccc(F)c(Cl)c3)c(=O)c2c1C | -6
COCCNc1ncnc2c1oc1ccccc12 | -8
O=[N+]([O-])c1ccccc1S(=O)(=O)NCCOc1ccc(Cl)cc1 | -14
O=C(CCSc1nnc(-c2cccc([N+](=O)[O-])c2)o1)Nc1ccc(Br)cc1 | -10
COc1cccc(NC(=O)CN(C)S(=O)(=O)c2ccc3ccccc3c2)c1 | 2
Cc1ccc(S(=O)(=O)N(C)CC(=O)Nc2ccccc2C(N)=O)cc1 | -7
CCn1c(SCC(=O)Nc2ccc(Cl)c(Cl)c2)nnc1-c1cc2cccc(OC)c2o1 | 36
Cc1nn(C(=O)Cn2ccc([N+](=O)[O-])n2)c(C)c1I | -9
O=C(CSc1nnc(-c2cccnc2)o1)c1ccc2ccccc2c1 | 6
Cn1c(=O)c2c(ncn2CCCN)n(C)c1=O | -5
Cc1ccc(NC(=O)CSc2n[nH]c(-c3ccccc3Cl)n2)cc1C | 4
O=C(O)Cn1c(=O)n(CC(=O)O)c2ccccc21 | -8
N#Cc1c(NC(=O)Cn2c(=O)oc3cc(Br)ccc32)sc2c1CCCC2 | 15
COc1ccc(S(=O)(=O)N(C)CC(=O)Nc2cccc(SC)c2)cc1C | 17
